VCAM-1 up = boosters of cytokine-driven VCAM-1 levels – cell-based, plate reader, pooled HUVEC, TNFa stimulus (AID 455). HUVEC TNFa-induced VCAM-1 immunofluorescence, plate reader; numbers were filed only for top-ranked candidate wells. augmentation, % at 5 µM. actives 0.2% (n = 10,000);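 active means a compound raising TNF-alpha-driven VCAM-1 surface staining, with its hit status upheld on visual or statistical review; inactive means the rest, including hits rejected on review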;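 further: 0% = TNFa with vehicle and 100% = strongest image-checked hit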
26S disassembly = blocks ATP-dependent breakdown of the yeast 26S proteasome; anti-FLAG beads, GFP-proteasome disassembly, flow cytometry; actives 0.2% (n = 24,000); AID 751; inhibition of disassembly, % (no concentration beside the values);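 active means above 40%; inconclusive means likely self-fluorescent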;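 further: plate controls were ATP control with full disassembly for no effect and ATP-gamma-S intact proteasomes for full effect; higher percent means more bead fluorescence retained so stronger block of disassembly; stock transfer was 100 nL into about 10 µL; wells with too few beads may also be inconclusive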
* = called active by the depositor; i = inactive; u = inconclusive; x = no result given.

VCAM-1 up,26S disassembly,SMILES
x,-0.1,CC(=O)c1cccc(NC(=O)C2CCCN(S(=O)(=O)c3cccc4cccnc34)C2)c1 (configuration not stated)
i,-0.3,CCn1c(=O)n(CC(=O)Nc2cc(OC)ccc2OC)c(=O)c2ccccc21
x,-2.7,CCN(Cc1ccccc1)C(=O)Cn1cc2c(n1)CCCC2
x,2.0,COc1ccc(-c2nc(CS(=O)CC(=O)NCc3cccnc3)c(C)o2)cc1 (configuration not stated)
x,0.0,COc1cc2nc(N(C)C)nc(N)c2cc1OC
x,0.5,COC(=O)c1cc2c(s1)-c1ccccc1OC2
i,-0.3,Cc1cc(C)n(-c2ccc(C(=O)Nc3ccc4c(c3)OCCO4)cc2)n1
x,0.9,COc1ccccc1CNC(=O)CCCNS(=O)(=O)c1cccc2nsnc12
x,0.3,Cc1ccc(-c2ccc(=O)n(CC(=O)NCCN3C(C)CCCC3C)n2)cc1 (configuration not stated)
x,0.6,COc1ccc(CCNC(=O)c2oc3ccc(S(=O)(=O)N4CCOCC4)cc3c2C)cc1OC
x,1.0,CCOC(=O)N1CCN(C(=O)c2ccc(N3CCCC3=O)cc2)CC1
i,-0.3,CCc1ccccc1OCCCCN1CCCC1
x,-2.1,CC(C)N1C(=O)CCC1C(=O)N1CCN(c2ccccn2)CC1 (configuration not stated)
x,3.1,N#CCc1ccc(NS(=O)(=O)c2ccc(N3CCCC3=O)cc2)cc1
i,-3.0,COc1ccc2[nH]c(=O)c(CNC3CCCCC3)cc2c1
x,-1.7,Cc1nc(C)c(C(=O)Nc2nc3c(C)cccc3s2)o1
x,-0.7,O=C(Cc1ncn[nH]1)NCCc1ccccc1
x,-0.3,CCCNC(=O)N1CCN(c2nc(C(C)C)c3c(c2C#N)CC(C)(C)OC3)CC1
i,2.1,CCOC(=O)c1nnc2ccnn2c1N
x,-1.8,COc1cccc(-c2nc(CS(=O)CC(=O)O)c(C)o2)c1 (configuration not stated)
i,-0.6,O=C(NCCO)c1cc2ccccc2cc1O
x,0.3,O=C(C1CCCC1)N(c1ccccc1)C1C=CS(=O)(=O)C1 (configuration not stated)
x,0.1,COc1ccc(CCC(=O)NCc2cn3ccsc3n2)cc1
i,0.5,[N-]=[N+]=CC(=O)CC(c1ccccc1)N1C(=O)c2ccccc2C1=O (configuration not stated)
x,-1.5,O=C(Cn1cccc1C(=O)c1ccccc1)NCCCN1CCOCC1
x,2.9,Cc1ccccc1C(=O)c1cccn1CC(=O)N1CCCCCC1
i,0.5,CN1CCC(=C2c3ccccc3C=Cc3ccccc32)CC1
x,-0.6,CCOC(=O)N1CCC(Nc2ccc3nnc(-c4ccccc4)n3n2)CC1
i,u,CCOC(=O)Nc1ccc2c(CN3C(=O)NC4(CCCC4)C3=O)cc(=O)oc2c1
x,0.0,Cc1csc2ncc(C(=O)Nc3ccon3)c(=O)n12

Another view of 4 compounds above:
> CN1CCC(=C2c3ccccc3C=Cc3ccccc32)CC1
  VCAM-1 up = i	26S disassembly = 0.5
> CCOC(=O)N1CCC(Nc2ccc3nnc(-c4ccccc4)n3n2)CC1
  VCAM-1 up = x	26S disassembly = -0.6
> CCOC(=O)Nc1ccc2c(CN3C(=O)NC4(CCCC4)C3=O)cc(=O)oc2c1
  VCAM-1 up = i	26S disassembly = u
> Cc1csc2ncc(C(=O)Nc3ccon3)c(=O)n12
  VCAM-1 up = x	26S disassembly = 0.0

The results go on.
VCAM-1 up,26S disassembly,SMILES
x,-1.2,Cc1cc(C)c(NC(=O)NC(=O)c2cccc(F)c2)c(C)n1
i,-0.9,CCc1ccccc1NC(=O)CSc1ncn[nH]1
i,1.2,CCC1Oc2ccc(C)cc2N(CC(=O)N(Cc2cccnc2)Cc2ccc(C)o2)C1=O (configuration not stated)
i,-3.3,O=C(Nc1ccccc1Cl)c1c(F)c(F)c(F)c(F)c1F
i,-0.3,Cc1cc(C)c(NC(=O)Cn2cc3c(n2)CCCC3)c(C)c1
x,-0.9,CCC1Oc2ccc(C)cc2N(CC(=O)NCc2ccccc2OC)C1=O (configuration not stated)
i,0.0,CN1C(=O)CC(N2CCC(C(N)=O)(N3CCCCC3)CC2)C1=O (configuration not stated)
i,1.4,COc1ccc(NC(=O)c2cc(C(C)C)on2)c(OC)c1
x,1.7,Cc1ccc(Cn2ccc(NC(=O)c3cc(C(C)C)on3)n2)cc1
x,-1.1,O=C(NC1CCCCC1)C(c1ccccc1)N1CCOCC1 (configuration not stated)
x,0.9,CCN(CC)Cc1c[nH]c2c(C(=O)OC)cccc12
x,0.7,O=C(O)c1cccnc1-c1ncccc1C(=O)O
i,1.1,O=C(Nc1ccccc1N1CCN(c2ccc(F)cc2)CC1)c1ccccc1
x,-0.1,O=C(NCc1cn2ccsc2n1)c1cccc(C(F)(F)F)c1
x,-1.9,CCOC(=O)c1[nH]c(C)c(C(=O)NC2CCCCCC2)c1C
i,-0.9,CC(C)(S)[C@@H](N)C(=O)O
x,0.2,COc1ccc(OC)c(CCNC(=O)CC2Oc3ccccc3NC2=O)c1 (configuration not stated)
x,1.5,O=C(NCCN1CCOCC1)C1CCN(S(=O)(=O)N2CCCCC2)CC1
x,2.2,COc1ccc(C)c2sc(N3CCCC3)nc12
x,0.2,FC(F)Oc1ccccc1C1CC(c2ccc(Br)s2)Nc2ncnn21 (configuration not stated)
i,11,Cc1cc(C(=O)CN2C(=O)c3ccccc3C2=O)c(C)n1Cc1cccs1
x,0.8,CC(C)(C)OC(=O)NCc1nc(N)n[nH]1
x,-0.2,CCOC(=O)c1cc(-c2nnc(-c3ccc(Cl)cc3)o2)c(C)nc1C
x,-1.0,CCOc1cc(C#N)c(NC(=O)c2cccnc2)cc1OCC
x,0.2,O=C(NC1(C(=O)NC2CCCC2)CCCCC1)c1ccc2c(c1)OCO2
x,0.0,O=S(=O)(Nc1ccc2oc(-c3ccccc3)nc2c1)c1ccccc1
i,-1.3,Cc1ccc(C(=O)Nc2ccc(Cl)cn2)cc1S(=O)(=O)N1CCOCC1
i,-4.4,Cc1nc(-c2coc3cc(OCC(=O)O)ccc3c2=O)cs1
x,-0.4,CCN(Cc1ccccc1)C(=O)CCc1nc(-c2ccc(C)cc2)no1
x,0.1,CCCN1CC=C2C(C#N)=C(N)C(C#N)(C#N)C(c3cccc(OC)c3OC)C2C1 (configuration not stated)
i,0.6,O=C(CCn1c(=O)sc2ccccc21)NC1=NCCS1
x,-0.1,CCCCOC(=O)C1=C(C)NC2=C(C(=O)CCC2)C1c1cc(OC)ccc1OC (configuration not stated)
i,2.4,Cc1cc(O)c(C(C)C)cc1N=C1CSC(=O)N1
x,-0.9,CC1CCc2nn(CC(=O)NCCCN3CCCCC3)cc2C1 (configuration not stated)
i,-1.3,CCc1nnc(NC(=O)COC(=O)CN2C(=O)c3ccccc3C2=O)s1
i,1.7,CC1CCN(CC(O)COC2CCC(C(C)(C)C)CC2)CC1 (configuration not stated)
i,1.7,Cc1[nH]c(C(=O)N2CCCCC2)c(C)c1C(=O)NC1CCCCC1
x,-1.0,CCn1c(C(=O)N2CCCC(C(=O)NCCc3ccc(C)cc3)C2)cc2sccc21 (configuration not stated)
x,0.6,CCCn1c(=O)c2c(c3ccccc31)OCC(=O)N2
i,-0.5,N#Cc1c(NC(NC(=O)c2ccco2)C(=O)c2ccccc2)sc2c1CCCC2 (configuration not stated)
x,-2.7,COc1ccc(N2CCN(C(=O)CCNS(=O)(=O)c3ccc4c(c3)CCC(=O)N4)CC2)cc1
x,-1.6,C=CCn1c(SCC(=O)Nc2ccc(C)cc2C)nnc1-c1cccnc1
x,3.7,CC(=O)Nc1ccc(NC(=O)C2CCCN(c3nnc(-n4cccc4)s3)C2)cc1 (configuration not stated)
x,0.9,COc1ccc(N2C(=O)CSC2c2ccncc2)cc1 (configuration not stated)
i,-0.5,CCCCCC(=O)N1CC2(C)CN(C(=O)CCCCC)CC(C)(C1)C2=O
i,-0.6,COc1ccc(CCNC(=O)c2nc3ncccn3n2)cc1OC
x,-1.2,O=c1cc(N2CCN(Cc3ccccc3)CC2)[nH]c(=O)n1Cc1ccc(F)cc1
x,0.8,COc1ccc(-c2cc(C(F)(F)F)nc(N3CCCCC3)n2)cc1OC
i,-0.7,CCOC(=O)CSc1nnc(-c2ccc(NS(=O)(=O)c3ccc(C)cc3)cc2)o1
i,-0.7,O=C(NCCc1ccccn1)c1ccc(COc2ccccc2)o1
x,2.9,Cc1nn(C)c(C)c1S(=O)(=O)N1CCC(C(=O)NCC2COc3ccccc3O2)CC1 (configuration not stated)
i,-0.9,COCCn1nnnc1C(c1ccc(OC)cc1)N1CCN(c2ccccc2F)CC1 (configuration not stated)
x,1.0,O=C(O)CCc1nc2cccnc2n1Cc1ccccc1
x,-0.3,CC1CCN(C(=O)CSc2nnc(Cc3ccccc3)o2)CC1
x,0.2,Cc1ccc(Cn2nnc3c(=O)n(Cc4cc(C)ccc4C)cnc32)cc1
x,-0.3,COc1cccc(CNC(=O)Nc2cccs2)c1
i,-0.9,COC(=O)CCSCc1cn2cc(Cl)ccc2n1
i,4.8,COc1ccc(C(=O)Nc2cccc(-c3nc4ncccc4o3)c2C)cc1OC
x,0.3,CC1=C(C(=O)NC2CCCCC2C)C2(CCC(C)CC2)OC1=O (configuration not stated)
i,26,CN1CC=C2C(C#N)=C(N)C(C#N)(C#N)C(Cc3ccccc3)C2C1 (configuration not stated)

4 of the compounds above, as labelled records:
Compound: CC1CCc2nn(CC(=O)NCCCN3CCCCC3)cc2C1 (configuration not stated)
- VCAM-1 up: x
- 26S disassembly: -0.9
Compound: CCc1nnc(NC(=O)COC(=O)CN2C(=O)c3ccccc3C2=O)s1
- VCAM-1 up: i
- 26S disassembly: -1.3
Compound: CC1CCN(CC(O)COC2CCC(C(C)(C)C)CC2)CC1 (configuration not stated)
- VCAM-1 up: i
- 26S disassembly: 1.7
Compound: Cc1[nH]c(C(=O)N2CCCCC2)c(C)c1C(=O)NC1CCCCC1
- VCAM-1 up: i
- 26S disassembly: 1.7

(listing goes on)
VCAM-1 up,26S disassembly,SMILES
i,0.1,CNC(=O)c1nnn(Cc2ccccc2)c1NC(C)=O
i,0.1,CCOC(=O)C1=C(N)c2ccccc2CC1C(C)C (configuration not stated)
x,-3.0,Cc1noc(C)c1S(=O)(=O)NC1CCN(Cc2ccccc2)CC1
i,0.7,O=C(CSc1ncnc2ccccc12)NCCCO
i,-0.3,O=C(C1CCN(S(=O)(=O)c2cccnc2)CC1)N1CCN(c2ccc(Cl)cc2)CC1
i,6.4,COCCNC(=O)CN1CCC(NC(=O)Nc2ccc(C(F)(F)F)cc2)CC1
x,-1.1,CCN1CCN(C(=O)c2nn(-c3ccc(OC)cc3)c(=O)c3c2c2ccccc2n3C)CC1
i,1.4,COC(=O)CS(=O)(=O)c1nnc([C@H](Cc2ccccc2)NC(=O)OC(C)(C)C)o1
i,-1.7,Nn1c(Cc2ccccc2F)nnc1SCC(=O)N1CC(=O)Nc2ccccc21
i,-1.4,O=C1c2ccccc2C(=O)N1C/C=C/c1ccccc1
x,3.2,COc1ccc(CNC(=O)C(C)NC(=O)c2cc3ccccc3o2)cc1 (configuration not stated)
i,-0.1,COc1ccc(/C(O)=C2/C(=O)C(=O)N(CCCN(C)C)C2c2ccco2)cc1Cl (configuration not stated)
i,1.6,Clc1ccccc1OCCCCn1ccnc1
i,-0.6,O=c1cc(CSc2nnnn2-c2ccccc2)nc2scc(-c3ccccc3)n12
x,0.0,COc1ccc(-c2noc(CCC(=O)NCc3cc(Br)ccc3OC)n2)cc1
x,-1.3,Cc1cc(C)c(S(=O)(=O)NCc2cn3c(C)csc3n2)cc1C
x,1.2,Cc1ccc(-c2nnn(Cc3nc(N)nc(N4CCOCC4)n3)n2)cc1
i,2.9,COc1ccc(N2CCN(CCCNC(=O)C3(S(=O)(=O)c4ccc(Cl)cc4)CC3)CC2)cc1
i,-0.4,CC(CC(=O)NCc1ccccc1)C1CCCO1 (configuration not stated)
x,-4.0,COc1ccc(-c2c(C)nn3c(N4CCN(Cc5ccccc5)CC4)cc(C)nc23)cc1OC
x,0.6,Cc1cc(NC(=O)CSc2nc3c([nH]c4ccccc43)c(=O)n2-c2cccc(C(F)(F)F)c2)no1
x,-2.5,COCCN1Cc2cccc(C(=O)Nc3cc(OC)ccc3OC)c2C1=O
x,-0.2,COc1ccc(C2C(C(=O)O)CC(=O)N2c2ccc(OC)cc2)cc1 (configuration not stated)
x,0.6,N#CC1=C(N)OC2=C(C(=O)CCC2)C1c1ccc(OC(=O)N2CCOCC2)cc1 (configuration not stated)
x,-0.5,COc1ccccc1-c1cc(C(F)(F)F)nc(N2CCN(c3ccc(F)cc3)CC2)n1
i,2.0,COc1ccc(OC)c(NS(=O)(=O)Cc2ccccc2)c1
x,0.7,CN(CC(=O)N1CC=C(c2ccccc2)CC1)S(=O)(=O)c1cnc[nH]1
i,-3.0,CC(C(=O)OCn1nnc2ccccc2c1=O)N1C(=O)c2ccccc2C1=O (configuration not stated)
x,18,Cc1ccc(S(=O)(=O)NCCn2c(C)cc3ccccc32)cc1
x,0.3,O=C(NCCc1ccccc1)c1noc2c1CCc1ccccc1-2
x,1.0,O=C(c1ccccc1)N1CCN(c2ccc(NCc3ccc4c(c3)OCO4)cc2)CC1
x,0.2,Cc1ccc(C)c(Cn2c(=O)n(CCCC(=O)NCc3ccco3)c(=O)c3ccccc32)c1
x,0.1,Cc1noc(NS(=O)(=O)c2ccc(NC(=O)CSc3nc4c(cc3C#N)CCCC4)cc2)c1C
x,-1.0,CCC(C)NC(=O)CC(c1ccc(OC)cc1)n1cccc1 (configuration not stated)
i,4.8,CCCC(=O)Nc1cc(C)c2c(=O)oc3ccccc3c2n1
i,0.2,CCC(Sc1ccc(C(=O)O)cc1)C(=O)O (configuration not stated)

Compound activity: PubChem, several laboratories

Some of the compounds tested. The share of hits here may be higher or lower than overall.
